Arbovirus inh – arbovirus infection inhibition. arbovirus infection cell-based antiviral screen. inhibition, % at 10 µM. 200,000 compounds, 0.37% hits. AID 1251;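 active = inhibition from about 30%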;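 also: bluetongue infection of BSR cells; cell survival read as ATP light after 72 h; 0% = infected wells without compound and 100% = uninfected wells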
Mtb H37Rv – M. tuberculosis H37Rv growth inhibitors, H37Rv strain (AID 1626) | M. tuberculosis H37Rv growth inhibition; higher % means a stronger effect | one-dose inhibition, % at 10 µM; IC50 in µM for titrated hits | 220,000 compounds, 0.95% hits;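 active = confirmed in a dose series; inconclusive = inhibition above 80% but not taken into the dose series; inactive = below 80% or under 30% at every dose of the series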;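 also: bacteria incubated seven days before Alamar blue readout; 0% = bacteria only wells and 100% = bacteria with antibiotic wells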
RecA splice inh – blocks M. tuberculosis RecA intein splicing; 290,000 compounds, 0.75% hits; P9WHJ3; cell-free RecA intein splicing, fluorescence; inhibition, %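 (about 9 µM by stock and volumes)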; in the data active = inhibition above about 30%; inconclusive = no clear call, values can overlap the other calls;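 also: 0% = vehicle wells and 100% = reference inhibitor control wells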
Target sequence (P9WHJ3 whole entry, looked up, canonical isoform): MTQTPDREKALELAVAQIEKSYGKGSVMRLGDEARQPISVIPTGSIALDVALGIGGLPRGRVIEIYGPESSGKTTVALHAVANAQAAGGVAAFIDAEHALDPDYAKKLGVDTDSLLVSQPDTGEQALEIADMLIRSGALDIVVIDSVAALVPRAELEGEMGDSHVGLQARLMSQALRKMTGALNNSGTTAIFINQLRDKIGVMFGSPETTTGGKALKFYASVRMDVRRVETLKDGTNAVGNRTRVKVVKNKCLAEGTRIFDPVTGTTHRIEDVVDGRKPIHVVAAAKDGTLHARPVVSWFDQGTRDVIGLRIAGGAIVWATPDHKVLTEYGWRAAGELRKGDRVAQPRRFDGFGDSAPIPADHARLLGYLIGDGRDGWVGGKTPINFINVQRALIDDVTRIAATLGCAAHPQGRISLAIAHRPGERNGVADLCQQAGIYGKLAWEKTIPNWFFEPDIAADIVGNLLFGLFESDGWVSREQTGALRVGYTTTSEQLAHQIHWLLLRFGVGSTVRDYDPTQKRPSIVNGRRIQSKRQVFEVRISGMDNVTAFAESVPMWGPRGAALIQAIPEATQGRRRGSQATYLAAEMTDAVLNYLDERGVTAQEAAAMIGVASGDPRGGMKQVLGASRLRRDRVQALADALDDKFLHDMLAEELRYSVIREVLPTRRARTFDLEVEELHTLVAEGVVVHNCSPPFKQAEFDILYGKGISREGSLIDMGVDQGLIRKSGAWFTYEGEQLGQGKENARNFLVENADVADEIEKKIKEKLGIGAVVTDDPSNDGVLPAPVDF
Mtb betalactam – beta-lactam sensitization of Mtb H37Rv. inhibition, % at 25 µM. 330,000 compounds, 0.27% hits. M. tuberculosis H37Rv growth with meropenem, percent inhibition; hits of this screen are not shown here. AID 434955;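 active = about 74% or more and at least 40 points above the plate without the antibiotic, then above 30% in a dose series; inconclusive = first-round hits that could not be retested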;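 also: growth measured after seven days incubation then overnight dye step; 0% = bacteria only wells and 100% = bacteria with antibiotic; twin plates without the antibiotic show which effects depend on it; some results filed as inactive read as strong as hits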
YopH PTP inh – YopH (Yersinia) phosphatase inhibition; fluorescence Ex485/Em525; AID 898; 140,000 compounds, 0.16% hits; inhibition, %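 (about 10 µM by stock and volumes)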;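 active = inhibition of 50% or more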;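 also: controls were vehicle for no effect and minimum signal wells for full effect; inactives centre near -20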
Arbovirus inh repeat – further read-out of Arbovirus inh, marked with its call; inhibition, %; measured here: 10K subset replicate screen; many hits read low in the repeat;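 first of two repeat runs on a subset; 0% = infected and 100% = uninfected wells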
* = called active by the depositor; ? = inconclusive; / = no result given. This is a subset; the hit share may differ from the screen's.

SMILES	Arbovirus inh	Mtb H37Rv	RecA splice inh	Mtb betalactam	YopH PTP inh	others
CC1Cc2ccccc2N1CC(=O)NCc1ccccc1Cl (stereo unspecified)	9	10%	1.8	2	-16
O=C(O)C1CCCCC1C(=O)Nc1ccccc1C(=O)N1CCN(c2ccc(F)cc2)CC1 (stereo unspecified)	0	-4%	-2.5	-5	-17
S=C(Sc1ccc(Cl)cc1)Sc1ccc(Cl)cc1	/	?	18	100	/
CC(O)CCC(=O)NNC1=CC(=O)CC(C)(C)C1 (stereo unspecified)	5	-1%	-3.7	1	/
c1ccc2c(c1)nc(NCCN1CCOCC1)c1nncn12	8	-3%	0.3	1	-18	Arbovirus inh repeat=5
Cc1ccc(S(=O)(=O)C(C#N)c2nc3ccccc3nc2N2CCN(C)CC2)cc1C (stereo unspecified)	5	-6%	-6.0	-7	-7
COc1ccc(N2C(=O)CC(NCc3ccc(F)cc3)C2=O)cc1 (stereo unspecified)	-1	-3%	2.1	-1	-66
CCOC(=O)c1cnn2c1[nH]c(=O)c1ccccc12	5	6%	/	-2	-34
O=C(Oc1ccc2ccccc2c1)c1ccccc1	21	71%	9.6	92	1
O=C(NCc1ccccc1F)Nc1ccc([N+](=O)[O-])cc1	-7	-9%	1.6	1	/
Nc1ccccc1OCCOc1ccccc1N	/	/	-2.4	0	/
Oc1ccc[n+](CCCCC[n+]2cccc(O)c2)c1	/	3%	1.4	0	/
CCCOc1cccc(C2C(C(=O)c3ccc(C)o3)=C(O)C(=O)N2CCN2CCOCC2)c1 (stereo unspecified)	/	/	-1.0	4	/
CCNC(=O)NC(=O)C(C)Sc1nc2cc(C(=O)OC)ccc2c(=O)n1-c1ccccc1 (stereo unspecified)	43*	5%	4.7	-9	-39
COc1cccc(N2CC(C(=O)Oc3ccc4ccccc4c3)CC2=O)c1 (stereo unspecified)	3	59%	8.6	94	-25
CC(=O)NC(CC(=O)NCC(c1ccco1)N(C)C)c1ccccc1 (stereo unspecified)	/	-6%	-12	-1	-4
CCCC(=O)Nc1c(-c2cccs2)c(=O)c2ccccc2n1C	3	-12%	1.0	-5	5
O=C(OCC(=O)N1CCc2ccccc21)c1nc(Cl)ccc1Cl	4	1%	-1.1	-3	/
O=C(c1ccc2c(c1)OCO2)N(CC1CCCO1)C1(C(=O)NC2CCCC2)CCCCC1 (stereo unspecified)	-3	3%	2.0	-1	-21
CCOC(=O)C1(CCOc2ccccc2)CCN(Cc2cnc(C)[nH]2)CC1	-3	4%	-0.5	-8	/
O=C(Nc1cccc(-c2nnco2)c1)c1cccs1	/	-9%	-0.3	-5	/
COc1ccc(-c2cc(=O)c(C(=O)c3ccc(C)cc3)n[nH]2)cc1	-1	-2%	1.0	-4	/
CC1=NN(C(N)=S)C(=O)C1N=Nc1ccccc1Cl (stereo unspecified)	/	/	3.3	47	/
COc1ccc(C(=O)Oc2cc(/C=N/NS(=O)(=O)c3ccccc3)ccc2OC)cc1	3	-3%	-3.5	-14	-11
CCn1c(SCC(=O)NC(=O)NCc2ccco2)nc2sc(C)c(C)c2c1=O	-3	/	-1.1	-2	-25

The closing 7 compounds of the part before come first, to join the parts.
SMILES	Arbovirus inh	Mtb H37Rv	RecA splice inh	Mtb betalactam	YopH PTP inh	others
O=C(c1ccc2c(c1)OCO2)N(CC1CCCO1)C1(C(=O)NC2CCCC2)CCCCC1 (stereo unspecified)	-3	3%	2.0	-1	-21
CCOC(=O)C1(CCOc2ccccc2)CCN(Cc2cnc(C)[nH]2)CC1	-3	4%	-0.5	-8	/
O=C(Nc1cccc(-c2nnco2)c1)c1cccs1	/	-9%	-0.3	-5	/
COc1ccc(-c2cc(=O)c(C(=O)c3ccc(C)cc3)n[nH]2)cc1	-1	-2%	1.0	-4	/
CC1=NN(C(N)=S)C(=O)C1N=Nc1ccccc1Cl (stereo unspecified)	/	/	3.3	47	/
COc1ccc(C(=O)Oc2cc(/C=N/NS(=O)(=O)c3ccccc3)ccc2OC)cc1	3	-3%	-3.5	-14	-11
CCn1c(SCC(=O)NC(=O)NCc2ccco2)nc2sc(C)c(C)c2c1=O	-3	/	-1.1	-2	-25
Cc1cccc2cc(COC(=O)COc3ccccc3)c(=O)[nH]c12	1	-7%	0.1	46	15
CN(CC(=O)Nc1cccc(Cl)c1)S(=O)(=O)c1ccc2[nH]c(=O)oc2c1	/	/	-1.6	-6	/
Cc1ccc(-c2[nH]nc3c2C(c2cccnc2)C(C#N)=C(N)O3)cc1 (stereo unspecified)	2	1%	69*	-9	-49
CCCN1C(=O)c2cc(C(=O)NCc3ccc(OC)cc3)ccc2C1O (stereo unspecified)	6	-4%	2.5	-1	-20
CCN1CCN(S(=O)(=O)c2ccc(Cl)c(C(=O)NCCc3ccccc3)c2)CC1	/	/	-0.5	-4	/
O=C(CNC(=O)c1ccccc1F)Nc1ccccc1C(F)(F)F	-2	2%	-0.7	-6	/
CC(Sc1ccccc1)C(=O)NNC(=O)c1ccncc1 (stereo unspecified)	/	/	-4.1	-7	/
Cc1cc(C)cc(NC(=O)COc2ccc(C(=S)N3CCOCC3)cc2)c1	-4	-5%	-1.3	-13	/
COc1cc(CN2CCC(C(=O)N3CCC(C)CC3)CC2)cc(Br)c1O	4	-3%	-0.4	4	-37
COC(=O)c1ccccc1NC(=O)c1sc(Cl)nc1C	/	/	1.4	-2	/
O=C(COc1ccc(Cl)cc1)NCc1nnc(SCC(=O)N2CCCCCC2)o1	-3	13%	0.9	6	/
Cc1ccc(S(=O)(=O)N2CCN(C(=O)c3ccco3)CC2)c(C)c1	/	/	-0.8	6	/
COc1cc(C(=S)N2CCOCC2)cc(OC)c1OC(=O)c1cc([N+](=O)[O-])cc([N+](=O)[O-])c1	-1	11%	-0.6	2	-34
O=C(O)c1cccc(-c2ccc(/C=C3/SC(=Nc4ccccc4)N(Cc4cccnc4)C3=O)o2)c1	/	/	-2.1	7	/
COc1ccc2c(CC(=O)Nc3ccccc3OC)coc2c1	-3	5%	2.6	11	/
Cc1oc(-c2ccc(Cl)cc2)nc1CN1CCCC(C(=O)NCc2ccccn2)C1 (stereo unspecified)	2	-2%	1.6	1	-34
COc1ccc(C2c3cc(OC)c(OC)cc3CCN2C(=O)c2ccccc2Br)cc1OC (stereo unspecified)	/	/	2.8	-6	/
Cc1cccc(Nc2c([N+](=O)[O-])c(=O)n(C)c3ccccc23)c1	1	-2%	-1.0	?	-8
C=CCN(CC=C)C(=S)NC(=O)c1ccc([N+](=O)[O-])cc1	-6	?	-7.6	98	-1
Clc1ccc(OCc2nnc(-c3ccccc3Br)o2)c(Cl)c1	-8	-2%	0.7	17	-21	Arbovirus inh repeat=-4
CCOCC(=O)N1CCN(c2ccc(F)cc2)CC1	2	-9%	0.8	/	8
Cc1ccc(CS(=O)(=O)CCC(=O)NCCCN2CCCC2=O)cc1	2	2%	0.1	-14	-23
CCN(CC(=O)Nc1ccc(NC(C)=O)cc1)C(=O)Cc1c(Cl)cccc1Cl	/	/	-1.6	-7	/
CCOc1cccc(N(C(=O)c2ccco2)C(C(=O)NC2CCCC2)c2cccnc2)c1 (stereo unspecified)	/	/	-0.3	3	/
CCOC(=O)/C(=N\Nc1ncnc2ccccc12)c1ccc(C)cc1	/	/	-0.7	1	/

Molecules above that have two or more sulfur atoms, in the order listed:
SMILES	Arbovirus inh	Mtb H37Rv	RecA splice inh	Mtb betalactam	YopH PTP inh	others
S=C(Sc1ccc(Cl)cc1)Sc1ccc(Cl)cc1	/	?	18	100	/
CCn1c(SCC(=O)NC(=O)NCc2ccco2)nc2sc(C)c(C)c2c1=O	-3	/	-1.1	-2	-25

The list continues:
SMILES	Arbovirus inh	Mtb H37Rv	RecA splice inh	Mtb betalactam	YopH PTP inh	others
Cc1cc(C(=O)CN2C(=O)NC3(CCC(C)CC3)C2=O)c(C)n1C (stereo unspecified)	-5	-10%	0.8	-8	/
Cc1ccc(NC(=O)c2cc(=O)c3ccccc3o2)c(C)c1	8	3%	-0.1	1	-23
CCOC(=O)CSC1=C(C#N)C(c2ccc(C)s2)CC(=O)N1 (stereo unspecified)	-6	-4%	-0.8	6	-40	Arbovirus inh repeat=-7
COc1ccccc1N1CCN(C(=O)C2CCCO2)CC1 (stereo unspecified)	1	-2%	6.2	7	-13
CCN(CC)CCN(C(=O)c1ccc2ncsc2c1)c1nc2cc3c(cc2s1)OCO3	/	/	-1.1	3	/
COc1cccc(CNC(=O)Cn2cc([N+](=O)[O-])cn2)c1	/	/	2.9	-7	/
CCCC(=O)OCCNc1cc(Sc2nccn2C)c2nonc2c1[N+](=O)[O-]	-38	18µM*	90*	101	-41
COc1ccccc1-c1c(NC(=O)c2ccco2)n(C)c2ccccc2c1=O	/	-5%	2.0	-2	/
CCOC(=O)[C@@H]1[C@H]2COc3ccccc3[C@H]2N2C(=O)N(c3ccc(C)cc3)C(=O)[C@]12C	/	/	3.1	-1	/
CC(=O)NC(Cc1cccc(F)c1)C(=O)NC1CCN(c2ncccc2[N+](=O)[O-])CC1 (stereo unspecified)	-2	-9%	-3.4	-2	/
O=C(CCCNS(=O)(=O)c1ccccc1)NCc1ccco1	2	-3%	-3.5	4	-34
COc1cc2c(cc1OC)CN(C(=O)c1ccc(S(=O)(=O)N3CCCCCC3)cc1)CC2	-1	3%	1.5	6	-10
C/C(=N\NC(=O)c1c[nH]c2ccccc12)c1ccc(C)o1	-2	-4%	-2.3	9	-40
Cc1nnsc1NC(=O)OCCCl	1	-6%	5.9	-4	-5
CC(=O)c1cccc(NC(=O)CSc2ccc(-c3ccc4c(c3)OCO4)nn2)c1	-5	2%	1.9	8	-14
COC(=O)CCN(c1ccccc1)S(=O)(=O)c1cc(-c2cc(C)no2)ccc1OC	/	/	-1.3	3	/
Cc1c(OCC(=O)OC(C)(C)C)ccc2c3c(c(=O)oc12)CCC3	9	-3%	4.8	50	-29
Cc1ccc(/C=C2\OC(=O)c3ccccc32)cc1	7	2%	-1.7	-8	-9
CCC1=C(OC(=O)N(CC)CC)N2C(=O)OC(=NCCc3c[nH]c4ccccc34)[C@]2(C)[C@H]2C1=CC[C@H]1C(=O)N(CC(=O)OC)C(=O)[C@H]12	/	6%	2.5	2	/
Cc1cc(OCCn2cnc3ccccc3c2=O)cc(C(C)C)c1	-3	10%	1.6	6	-26
CCCS(=O)(=O)Nc1ccc(-c2ccc3nnc(C)n3n2)cc1	-1	-3%	/	/	/
CC(C)[C@H](CN(N=O)[C@@H](Cc1ccccc1)CN(C)N=O)N(CCc1ccccc1)N=O	8	-5%	5.1	1	/
N#C/C(=C\c1ccc(OCCN2CCOCC2)cc1)C(=O)Nc1ccccc1	/	/	-0.8	0	/
Cc1ccccc1-c1nc(CN2CCC(C(=O)NC3CCCCC3)CC2)c(C)o1	/	/	1.0	6	/
COC(=O)c1sc2nc(CSc3ccc(Br)cc3)[nH]c(=O)c2c1C	/	4%	-1.3	-9	/

Further compounds follow:
SMILES	Arbovirus inh	Mtb H37Rv	RecA splice inh	Mtb betalactam	YopH PTP inh	others
CC(NS(=O)(=O)c1ccc(Br)cc1)C(=O)NCc1ccc2c(c1)OCO2 (stereo unspecified)	-7	2%	-3.1	-1	/
COc1ccc(/C=N/NC(=O)c2ccco2)cc1OCc1ccccc1	/	3%	6.6	-11	/
Cc1ccnc2nc(C(=O)OCCOc3cccc(Br)c3)nn12	-1	-12%	-3.7	0	-43
CC(CN1CCOCC1)OC(=O)c1ccccc1 (stereo unspecified)	/	0%	-1.2	16	/
CC(C)(C)C(=O)Nc1ccc(-c2csnn2)cc1	/	0%	1.3	-5	/
O=C(CSc1nnc(CNc2ccc(F)cc2)n1Cc1ccccc1)NCc1ccccc1	11	-3%	/	-1	-13
O=C(Nc1ccno1)Nc1ccc(Cl)cc1Cl	/	5%	-0.9	6	/
O=C(Cn1c2ccccc2c(=O)c2cc([N+](=O)[O-])ccc21)Nc1ccccc1Cl	-3	16%	-6.2	7	-15
CCOc1cccc(C2NC(=S)NC(C)=C2C(=O)Nc2ccccc2)c1 (stereo unspecified)	-3	-5%	0.5	-4	-9
COc1cc(/C=C\C(=O)NCc2ccc3[nH]c(C)cc3c2)cc(OC)c1OC	-4	9%	-1.2	4	-34
Cc1ccc(S(=O)(=O)NN=C2C3CC4CC(C3)CC2C4)cc1	/	/	-2.4	-3	/
CCCCCCc1c(O)nc(SCCN(C)C)[nH]c1=O	/	-3%	-1.9	-1	/
S=C(NCC1COc2ccccc2O1)Nc1ccccc1 (stereo unspecified)	-1	-1%	0.2	7	/
COc1cc(/C=N/NC(=O)c2ccc(CSc3nc4ccccc4[nH]3)cc2)cc(OC)c1OC	-15	25%	4.4	42	4
CCc1ccc2oc(C(=O)N3CCN(c4ccccc4OC)CC3)cc(=O)c2c1	/	/	-5.7	11	/
CC(Oc1cccc(Cl)c1)C(=O)Nc1cc(=O)n(C)c(=O)n1C (stereo unspecified)	14	-6%	-1.1	-3	-24
Nc1nnc(-c2ccc(Cl)c([N+](=O)[O-])c2)s1	12	4%	/	0	/
Cc1cc2nc3ccc(N(C)C)cc3nc2cc1N	/	/	6.3	0	/
